RanGTP-Impb inh: inhibitors of RanGTP-importin-beta interaction, primary screen, biochemical, FRET, CFP-Ran, YFP-importin-beta, homogeneous. cell-free CFP-Ran/YFP-importin-beta FRET ratio. inhibition, % (test concentration not listed). 300,000 compounds, 1.1% hits;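 active means most replicates above 15%; inconclusive means exactly half above 15%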;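 further: 0% = DMSO wells and 100% = Ran loaded with GDP instead of GTP; wells of about 40 µL received 100 nL stock; the first replicate is given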
Calb FLC: affects C. albicans growth with fluconazole; C. albicans CaCi-2 (fluconazole-resistant clinical isolate) + fluconazole, Alamar Blue growth, 48 h; growth inhibition, % (no concentration beside the values); 300,000 compounds, 0.57% hits;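 active means most replicates above 75%; inconclusive means exactly half above 75%; inactive means most below 75%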;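 further: all wells also contain fluconazole at 8 µg/ml as a sub-toxic cotreatment; 0% = median of DMSO wells and 100% = median of geldanamycin control wells; wells of about 8 µL received 7.5 nL stock; the first replicate is given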
T cruzi inh: T. cruzi replication inhibition. T. cruzi beta-gal in NIH3T3, luminescence, 90 h. inhibition, % (no concentration beside the values). 300,000 compounds, 1.4% hits. AID 1885;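 active means mean inhibition across valid replicates above about 55%, limit read from the data; inconclusive means mean below that limit but half or more replicates reach it; inactive means mean below it, under half of replicates reach it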;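 further: signal also drops with host cell toxicity which is not excluded here; 0% = plate median of DMSO wells and 100% = zero luminescence signal; higher percent means less beta-gal luminescence so fewer parasites; stock transfer was 50 nL into about 50 µL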
Vif TR-FRET: HIV-1 Vif–A3G interaction blockers – biochemical, TR-FRET, GST-Vif 1-94, biotin-A3G peptide, dose response retest, primary screen (AID 1117319); TR-FRET GST-Vif / biotin-A3G peptide binding; higher % means a stronger effect; test concentration not given here; strong numbers were not always called active; inhibition, %, or IC50 in µM where a hit was titrated; 260,000 compounds, 0.57% hits;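 active means above the screen mean plus three standard deviations and confirmed in dose response; inconclusive means results disagree or hit not tested in dose response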;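 further: Vif residues 1-94 fused to GST binding biotinylated APOBEC3G peptide 110-148; 0% = full assay without inhibitor and 100% = GST in place of GST-Vif; retest series ran down from 100 µM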
AF4-AF9 inh: MLL-AF4/AF9 protein interaction inhibition; P42568; AlphaScreen, biotin-AF4 peptide binding to FLAG-AF9; inhibition, % at 10 µM; 350,000 compounds, 0.47% hits;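 active means every replicate reaching a set inhibition limit, whatever the replicate mean, cut at about 25% in these data; inconclusive means mean inhibition reaches that limit but some replicates miss it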;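 further: 0% = plate neutral control median and 100% = total signal loss; the record names both 10 and 1 µM as test concentration; the first replicate is given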
Target sequence (P42568 whole entry, looked up): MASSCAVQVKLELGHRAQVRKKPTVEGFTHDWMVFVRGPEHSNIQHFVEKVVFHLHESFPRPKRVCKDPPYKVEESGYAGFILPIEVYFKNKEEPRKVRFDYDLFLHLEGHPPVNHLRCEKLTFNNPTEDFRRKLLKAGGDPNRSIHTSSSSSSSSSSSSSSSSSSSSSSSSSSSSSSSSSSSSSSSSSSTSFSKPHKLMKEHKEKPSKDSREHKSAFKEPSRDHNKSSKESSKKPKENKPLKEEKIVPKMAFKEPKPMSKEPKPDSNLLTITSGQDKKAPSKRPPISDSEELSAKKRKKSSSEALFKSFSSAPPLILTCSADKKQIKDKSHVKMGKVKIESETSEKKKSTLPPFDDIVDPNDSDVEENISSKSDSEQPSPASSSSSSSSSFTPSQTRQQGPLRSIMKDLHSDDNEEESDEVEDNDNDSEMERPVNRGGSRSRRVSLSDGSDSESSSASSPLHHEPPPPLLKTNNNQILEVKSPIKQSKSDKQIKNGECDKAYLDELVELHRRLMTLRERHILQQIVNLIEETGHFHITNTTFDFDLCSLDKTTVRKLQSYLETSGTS
Beta cell apopt: blocks beta cell apoptosis; INS-1E cytokine-induced death, ATP luminescence, 48 h; percent of positive-control rescue, neutral wells zero; protection from apoptosis, % (no concentration beside the values); 300,000 compounds, 0.8% hits; AID 435005;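 active means all replicates at 75% or more, or half of them and the mean; inconclusive means half reach 75% but not the mean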;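 further: 0% = cytokine-treated negative control wells and 100% = positive control rescue; higher means more ATP so stronger rescue from cytokine killing; wells of about 40 µL received 100 nL stock; the first replicate is given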
Ecoli rRNA inh: inhibitors of bacterial rRNA selective over humanized ribosomes; GFP signal change (wild-type ribosome), % (test concentration not listed); E. coli WT GFP vs humanized-ribosome RFP mutants, fluorescence, 24 h; active compounds read low; DMSO median 0, no signal -100; 350,000 compounds, 1.6% hits;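 active means significant combined selectivity score with lowered wild-type GFP, culture density cut under 30%, mutant RFP and density less affected; inactive means any of these conditions unmet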; further: one replicate is shown; some compounds called inactive have numbers as strong as hits
A1 inh: inhibitors of the anti-apoptotic protein A1, read as caspase activation | MEF A1-2A-BIM cells, Caspase-Glo 3/7 luminescence, 3 h; percent of clofoctol response, vehicle zero | 330,000 compounds, 0.066% hits | caspase activation, % (concentration not given with the values) | AID 2462;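 active means over half of replicate activation scores above 10%, or exactly half above 10 with the replicate mean above 10; inconclusive means replicate mean below 10 yet half the replicates above 10; inactive means over half of replicates below 10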;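 further: wells of about 30 µL received 50 nL stock; many hits fall short of the cut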
Ecoli rRNA inh OD600: recorded beside Ecoli rRNA inh, whose call it bears; OD600 change, %; measured here: OD600 growth;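 optical density of the mix in the first replicate; 0 = DMSO median and -100 = no signal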
Ecoli rRNA inh RFP: second read-out of Ecoli rRNA inh, no call of its own (marks repeat the call); RFP signal change, %; measured here: RFP humanized mutant strains;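 first replicate; 0 = DMSO median and -100 = no signal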
The depositor's hits bear a star.

What do the screens show for `Cc1ccc2cc(CN(Cc3ccco3)C(=O)NC3CCCCC3)c(=O)[nH]c2c1C`?
RanGTP-Impb inh: 2.6; Calb FLC: 0.2; T cruzi inh: 35.5; Vif TR-FRET: -5.0%; AF4-AF9 inh: 14.7; Beta cell apopt: 7.3; Ecoli rRNA inh: 13.7; A1 inh: -0.6; Ecoli rRNA inh OD600: 13.7; Ecoli rRNA inh RFP: 0.5

Results for COc1ccc(-n2nnnc2SCC(=O)Nc2ccc3c(c2)OCCO3)cc1OC ?
RanGTP-Impb inh: -3.4; Calb FLC: -1.4; T cruzi inh: 4.3; Vif TR-FRET: 1.6%; AF4-AF9 inh: 5.0; Beta cell apopt: 1.3; Ecoli rRNA inh: 7.2; A1 inh: -1.2; Ecoli rRNA inh OD600: 4.8; Ecoli rRNA inh RFP: 9.7

What do the screens show for `CC(C)C[C@H](NC(=O)N1CC(=O)Nc2ccccc21)C(=O)N1CCC[C@H]1C(=O)O`?
RanGTP-Impb inh: 6.5; Calb FLC: 7.3; T cruzi inh: -3.5; AF4-AF9 inh: -1.9; Beta cell apopt: -0.1; Ecoli rRNA inh: 9.2; A1 inh: 0.6; Ecoli rRNA inh OD600: 2.1; Ecoli rRNA inh RFP: -4.5

Results for NS(=O)(=O)c1ccc(CCNC(=O)Cc2ccc(Cl)cc2)cc1 ?
RanGTP-Impb inh: 8.4; Calb FLC: -5.5; T cruzi inh: 1.2; AF4-AF9 inh: 1.2; Beta cell apopt: 2.2; Ecoli rRNA inh: 2.9; A1 inh: -0.1; Ecoli rRNA inh OD600: -4.5; Ecoli rRNA inh RFP: -1.5

Results for O=C(CCn1nnc2ccccc21)Nc1nnc(COc2ccc(F)cc2)s1 ?
RanGTP-Impb inh: -4.6; Calb FLC: 3.5; T cruzi inh: -4.7; Vif TR-FRET: 27.3%; Beta cell apopt: -1.1; A1 inh: 0.4

What do the screens show for `COc1ccc(N(C(=O)c2ccco2)C(C(=O)NC2CCCC2)c2ccc(N(C)C)cc2)cc1` (stereo unspecified)?
RanGTP-Impb inh: 1.2; Calb FLC: 1.6; T cruzi inh: 10.2; Vif TR-FRET: 3.6%; Beta cell apopt: -3.1; A1 inh: -0.2

What do the screens show for `Clc1cccc2c3c([nH]c12)CCNC3`?
RanGTP-Impb inh: 2.9; Calb FLC: -4.0; T cruzi inh: 4.5; Vif TR-FRET: 3.8%; AF4-AF9 inh: 1.1; Ecoli rRNA inh: 10.5; A1 inh: -0.4; Ecoli rRNA inh OD600: 8.2; Ecoli rRNA inh RFP: -0.7

Results for CCNC(=S)N1C2CCC1CC(NC(=O)Nc1ccc(C(=O)OCC)cc1)C2 (stereo unspecified) ?
RanGTP-Impb inh: 1.8; Calb FLC: -10.2; T cruzi inh: -0.8; Vif TR-FRET: 7.5%; AF4-AF9 inh: -0.2; Beta cell apopt: -2.8; Ecoli rRNA inh: -20.8*; A1 inh: -0.1; Ecoli rRNA inh OD600: -9.9*; Ecoli rRNA inh RFP: 6.8*

What do the screens show for `O=C(CSC1=NCCN1)Nc1ccccc1[N+](=O)[O-]`?
RanGTP-Impb inh: -1.2; Calb FLC: -5.8; T cruzi inh: 5.9; Vif TR-FRET: 1.6%; AF4-AF9 inh: -1.3; Beta cell apopt: -21.7; Ecoli rRNA inh: 13.4; A1 inh: 0.0; Ecoli rRNA inh OD600: 17.1; Ecoli rRNA inh RFP: 2.0

What do the screens show for `COc1ccc(N2C(=O)C(Cl)=C(N3CCCC(C)C3)C2=O)cc1` (stereo unspecified)?
RanGTP-Impb inh: 1.7; Calb FLC: 11.3; T cruzi inh: 5.3; Vif TR-FRET: 11.5%; Beta cell apopt: 6.0; A1 inh: 0.7

What do the screens show for `COc1ccc(NC(=O)C2CCCN(S(=O)(=O)c3cccnc3)C2)cc1OC` (stereo unspecified)?
RanGTP-Impb inh: 2.8; Calb FLC: -6.8; T cruzi inh: 12.1; Vif TR-FRET: 2.9%; AF4-AF9 inh: 4.8; Beta cell apopt: 5.0; Ecoli rRNA inh: 10.2; A1 inh: 0.9; Ecoli rRNA inh OD600: 4.7; Ecoli rRNA inh RFP: 3.6

What do the screens show for `O=C(COC(=O)Cc1ccc(Cl)cc1)Nc1ccccc1-c1ccccc1`?
RanGTP-Impb inh: 8.9; Calb FLC: 1.8; T cruzi inh: -9.7; Vif TR-FRET: 14.1%; Beta cell apopt: 2.0; A1 inh: 0.8

What do the screens show for `O=C(COC(=O)C1CC2C=CC1C2)Nc1ccccc1F` (stereo unspecified)?
RanGTP-Impb inh: -2.4; Calb FLC: 2.1; T cruzi inh: 0.6; Vif TR-FRET: -5.0%; AF4-AF9 inh: -2.9; Beta cell apopt: 1.8; Ecoli rRNA inh: 10.8; A1 inh: -0.6; Ecoli rRNA inh OD600: 4.9; Ecoli rRNA inh RFP: 0.8

Results for CCOC(=O)c1c(C)[nH]c(C(=O)CSc2ccc(Cl)cc2)c1C ?
RanGTP-Impb inh: -1.4; Calb FLC: -13.8; T cruzi inh: 17.3; Vif TR-FRET: 5.3%; Beta cell apopt: -5.0; A1 inh: 1.5

What do the screens show for `Cc1noc(/C=C/N(C)C)c1S(=O)(=O)N1CCCC(C(=O)N2CCCCC2)C1` (stereo unspecified)?
RanGTP-Impb inh: 1.8; Calb FLC: 4.8; T cruzi inh: 11.6; Vif TR-FRET: 2.9%; AF4-AF9 inh: -0.1; Beta cell apopt: -0.4; Ecoli rRNA inh: -1.7; A1 inh: -0.7; Ecoli rRNA inh OD600: 1.7; Ecoli rRNA inh RFP: 2.0

Results for CCOc1ccc(CNC(=S)N/N=C/c2ccc(OC)c(OC)c2)cc1 ?
RanGTP-Impb inh: -0.4; Calb FLC: 13.4; T cruzi inh: -4.4; Beta cell apopt: -8.4; A1 inh: -1.3

Results for N#C/C(=C\c1ccc(O)c(O)c1)C(=O)N1CCCC1 ?
RanGTP-Impb inh: 3.0; Calb FLC: -8.8; T cruzi inh: -13.2; Vif TR-FRET: -6.5%; AF4-AF9 inh: -5.3; Beta cell apopt: -5.2; Ecoli rRNA inh: -5.1; A1 inh: 0.5; Ecoli rRNA inh OD600: 6.4; Ecoli rRNA inh RFP: 4.4

Results for CCSC1=C(C#N)C(c2cccc(OC)c2)CC(=O)N1 (stereo unspecified) ?
RanGTP-Impb inh: -0.4; Calb FLC: 1.2; Vif TR-FRET: -0.9%; Beta cell apopt: -1.0; A1 inh: -0.4

What do the screens show for `COc1ccccc1N1C[C@@H]2C[C@@H](c3ccco3)N3CCC[C@@]23C1=O`?
RanGTP-Impb inh: 0.0; Calb FLC: -6.7; T cruzi inh: 3.6; Vif TR-FRET: -7.0%; AF4-AF9 inh: 0.2; Beta cell apopt: -0.7; Ecoli rRNA inh: 10.3; A1 inh: -0.5; Ecoli rRNA inh OD600: 4.5; Ecoli rRNA inh RFP: -0.5

What do the screens show for `CC1Cc2ccccc2N1S(=O)(=O)c1cccc(C(=O)NC2CC2)c1` (stereo unspecified)?
RanGTP-Impb inh: 2.6; Calb FLC: -0.5; T cruzi inh: 8.8; Vif TR-FRET: 14.8%; Beta cell apopt: 2.0; A1 inh: 0.8

Results for CN(C)CCCNC(=O)c1ccccn1 ?
RanGTP-Impb inh: 1.9; Calb FLC: 9.4; T cruzi inh: -17.8; Vif TR-FRET: -1.9%; Beta cell apopt: -11.0; A1 inh: -0.1

What do the screens show for `CCc1ccc2c(CN3CCN(S(=O)(=O)c4cccs4)CC3)cc(=O)oc2c1`?
RanGTP-Impb inh: -5.4; Calb FLC: 9.3; T cruzi inh: 19.7; Vif TR-FRET: -1.4%; Beta cell apopt: 8.0; A1 inh: 0.0

Results for Cc1ccc(-n2ncc3c(SCC(=O)NNC(=O)c4ccco4)ncnc32)cc1 ?
RanGTP-Impb inh: 1.8; Calb FLC: 24.7; T cruzi inh: 4.6; Vif TR-FRET: -2.4%; AF4-AF9 inh: -1.9; Beta cell apopt: -0.7; Ecoli rRNA inh: 3.8; A1 inh: -5.9; Ecoli rRNA inh OD600: -1.4; Ecoli rRNA inh RFP: 3.4

How did CN(C)C(=O)c1cc(S(=O)(=O)N(C)C)c(Cl)cc1N1CCCC1 do in these assays?
RanGTP-Impb inh: 0.5; Calb FLC: -7.7; T cruzi inh: 12.5; Vif TR-FRET: 15.3%; Beta cell apopt: 4.4; A1 inh: 0.4

Results for Cc1cc(C)cc(OCC(=O)OC(C)C(=O)Nc2ccc(Cl)cn2)c1 (stereo unspecified) ?
RanGTP-Impb inh: -1.3; Calb FLC: 1.2; T cruzi inh: -4.1; Vif TR-FRET: -0.5%; AF4-AF9 inh: -1.9; Beta cell apopt: -1.7; Ecoli rRNA inh: 2.6; A1 inh: -0.6; Ecoli rRNA inh OD600: -3.1; Ecoli rRNA inh RFP: -3.7

What do the screens show for `C#CCNc1nc(CC)nc2c1nnn2Cc1ccccc1F`?
RanGTP-Impb inh: 0.9; Calb FLC: -3.9; T cruzi inh: -1.2; Vif TR-FRET: 2.5%; Beta cell apopt: 17.7; A1 inh: 0.2

Results for COc1ccc(OC)c(NC(=O)CCN2C(=O)c3ccccc3C2=O)c1 ?
RanGTP-Impb inh: -0.6; Calb FLC: -2.6; T cruzi inh: -13.4; AF4-AF9 inh: -5.9; Beta cell apopt: -3.3; Ecoli rRNA inh: 6.0; A1 inh: 0.8; Ecoli rRNA inh OD600: 16.7; Ecoli rRNA inh RFP: -3.0

Results for Cc1ccccc1C(=O)OCC(=O)NCc1ccco1 ?
Vif TR-FRET: 21.4%; AF4-AF9 inh: -1.0; Beta cell apopt: -1.5; Ecoli rRNA inh: 0.7; A1 inh: -1.1; Ecoli rRNA inh OD600: 3.4; Ecoli rRNA inh RFP: 0.1

What do the screens show for `CC(=O)CC(c1ccccc1)S(=O)(=O)c1ccc(C)cc1` (stereo unspecified)?
RanGTP-Impb inh: 3.3; Calb FLC: -5.2; T cruzi inh: -20.5; Vif TR-FRET: 2.8%; Beta cell apopt: -9.7; A1 inh: 1.0

What do the screens show for `COc1ccc(-c2c[n+]3c(n2-c2ccc(C)cc2)CCCCC3)cc1`?
RanGTP-Impb inh: -0.1; Calb FLC: -8.2; T cruzi inh: 60.1*; Vif TR-FRET: -16.8%; AF4-AF9 inh: 2.0; Beta cell apopt: 126.7*; Ecoli rRNA inh: -47.7; A1 inh: -0.6; Ecoli rRNA inh OD600: -49.8; Ecoli rRNA inh RFP: -16.9

Results for Cc1ccc(CNCCCSc2nc(C)cc(C)n2)cc1 ?
RanGTP-Impb inh: 3.6; Calb FLC: -55.4; T cruzi inh: 26.7; AF4-AF9 inh: 6.0; Beta cell apopt: 2.4; Ecoli rRNA inh: 3.9; A1 inh: 0.1; Ecoli rRNA inh OD600: 9.4; Ecoli rRNA inh RFP: 2.7

Results for COCCNC(=S)N/N=C(\C)c1ccc2cc(OC)ccc2c1 ?
RanGTP-Impb inh: inconclusive; Calb FLC: 16.6; T cruzi inh: -0.6; Beta cell apopt: 35.4; A1 inh: -0.8

Compound activity as filed in PubChem BioAssay.

Only part of the results is shown; count on the stated rates, not on these rows.
